Screens (PubChem)
ClpP mod: qHTS Assay for Activators of ClpP; ATP-dependent Clp protease proteolytic subunit (Bacillus subtilis (strain 168)), P80244; purified B. subtilis ClpP, FRET peptide cleavage, 20 min; 340,000 tested, 1.9% active; Potency, µM (highest dose often 57.5 µM), for inactives: at the top dose activity change, negative = active; active = well fitted falling curve with a large enough effect; inconclusive = small, poorly fitted or top-dose-only effect; inactive = no such curve, though single readings can be large or run the other way; also: the source files actives as falling curves though it sought activators and does not explain the sign; nearly all actives have a fitted effect of over 65% in size; many hits overshoot -100%
Target sequence (P80244 whole entry, looked up): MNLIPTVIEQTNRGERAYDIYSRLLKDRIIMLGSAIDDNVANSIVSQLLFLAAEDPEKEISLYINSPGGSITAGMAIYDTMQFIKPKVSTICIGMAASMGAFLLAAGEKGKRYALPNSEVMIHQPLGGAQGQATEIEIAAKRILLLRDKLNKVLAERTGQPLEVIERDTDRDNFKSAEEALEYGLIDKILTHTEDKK
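Purified B. subtilis ClpP, 10 microg/mL final in Tris/HCl pH8 with KCl, BSA, glycerol and Tween-20, cleaved an Abz/nitrotyrosine-quenched decapeptide. Fluorescence (ex 320, em 430) was read at 0 and 20 min at room temperature. Delta was normalized to 5.8 microM ADEP and DMSO/no-enzyme controls.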
* hit, by the source's call; ? = inconclusive. Potency is read from the fitted curve at half-maximal effect.

| Compound | ClpP mod |
| --- | --- |
| CN(Cc1ccc(F)cc1)S(=O)(=O)c1nnc(NC(=O)c2ccccc2Cl)s1 | -3.5% |
| CCOC(=O)C(C)NC(=O)c1c2c(nc3ccccc13)C(=O)N(C1CCCCC1)C2 (stereo unspecified) | -28% |
| O=C(Cn1c(=O)oc2cc(S(=O)(=O)N3CCCCC3)ccc21)Nc1cccc(Cl)c1 | 0.3% |
| Cc1cc(C)c(Cn2cnc3nc4c(cc3c2=O)CCCC4)c(C)c1 | -29% |
| O=c1[nH]c2ccc(NCc3ccc(-c4ccc(F)cc4)o3)cc2[nH]1 | 10% |
| CCN(CC)c1ccc(C(=O)NCc2ccc3c(c2)CCN3C(=O)c2ccc(F)cc2)cc1 | 1.6% |
| O=C(Cc1ccc(-c2ccccc2)cc1)NCCS(=O)(=O)N1CCN(c2ccc(F)cc2)CC1 | -0.9% |
| COc1ccc(S(=O)(=O)NCCc2csc(-c3ccc(F)cc3)n2)cc1 | -6.2% |
| Cc1nn(C(=O)c2ccccc2F)c(C)c1S(=O)(=O)N1CCOCC1 | 0.4% |
| Clc1ccc(CSc2nc(NCCc3ccccc3)c3ccccc3n2)cc1 | -1.1% |
| CC1CCCN(c2ncnc3c2nc2n3CCCCC2)C1 (stereo unspecified) | 1.9% |
| Cc1ccc2c(CNC3CCC(C)CC3)c(C(=O)O)n(Cc3cccc(F)c3)c2c1 (stereo unspecified) | -28% |
| Cc1ccc(CNC(=O)C2CCN(S(=O)(=O)Cc3ccccc3)CC2)cc1 | 0.2% |
| O=C(CSc1nnc(CNC(=O)c2ccccc2)n1-c1cccc(Cl)c1)Nc1ccccc1F | -1.7% |
| COc1ccccc1N(C)C | 0.4% |
| CCc1ccc(NC(=O)Cn2c(=O)n(CCC(=O)N3CCc4ccccc4C3)c(=O)c3ccccc32)cc1 | -14% |
| Cc1cccc(OCCC(=O)NO)c1 | 1.6% |
| Cc1ccc(S(=O)(=O)c2nc(-c3ccco3)oc2SCC(=O)c2ccc(Cl)cc2)cc1 | 0.7% |
| Cc1ccc(-n2ncc3c(NCCO)ncnc32)cc1Cl | 3.9% |
| CCn1cc2nc(SCc3cc(C)ccc3C)n(Cc3ccc(OC)cc3)c(=O)c2n1 | -6.1% |
| O=C(c1cc(-c2cccc(Cl)c2)on1)N1CCCCC1 | -1.8% |
| CNC(=O)C1CCC(Cn2c(=O)c3sccc3n(CC(=O)Nc3ccc(C)c(F)c3)c2=O)CC1 (stereo unspecified) | -2.9% |
| CCC(CC)C(=O)Nc1ccc(OCc2cc(=O)n3ccc(C)cc3n2)cc1 | 0.7% |
| CCCCc1nn2c(=O)cc(COC(=O)c3cccc(NC(=O)c4cccs4)c3)nc2s1 | -11% |
| COc1cccc(Cn2c(CNC(=O)CCc3ccccc3)nc3cccnc32)c1 | -1.3% |
| Cc1ccc(C)c(CN2C(=O)c3ccccc3S(=O)(=O)c3ccc(C(=O)NCCc4ccc(Cl)cc4)cc32)c1 | -5.2% |
| O=C(Nc1ccc(OC(F)(F)F)cc1)c1cc2ccccn2n1 | -24% |
| Cc1ccccc1C(=O)Nc1sc2c(c1C(=O)O)CCC(C(C)(C)C)C2 (stereo unspecified) | 0.1% |
| COc1cccc(-n2c(-c3cccc(F)c3)nc3c(cnn3-c3ccc(C)cc3)c2=O)c1 | -5.7% |
| CC1CCN(S(=O)(=O)c2ccc3nc(Nc4cccc(C(F)(F)F)c4)ccc3c2)CC1 | 4.0% |
| CCCNC(=O)Cn1nc(-c2ccc(OC)cc2)c2cnc3ccc(F)cc3c21 | ? |
| Cc1ccc(-c2c(C(=O)Nc3ccc(F)c(F)c3)oc(=O)c3ccccc23)cc1 | -11% |
| O=c1cc(-c2ccccc2)n2c(SCc3ccccc3Cl)nnc2[nH]1 | -16% |
| COCCn1c(SCC(=O)c2ccc(C)cc2C)nc2cc(C(=O)NC3CCCC3)ccc2c1=O | -0.9% |
| CCOc1ccccc1NC(=O)c1nc(SCc2ccccc2F)ncc1Cl | 0.5% |
| CCN(Cc1ccccc1)C(=O)CN(c1ccc(OC)cc1)S(=O)(=O)c1c(C)nn(C)c1C | -0.1% |
| CC(C)Cn1c(=O)c2ccccc2n2c(-c3cccc(Cl)c3)nnc12 | -0.4% |
| Cc1c2cnn(-c3ccccc3)c(=O)c2c(C)n1CC(=O)N1CCN(c2ccc(F)cc2)CC1 | -6.0% |
| COc1cc(OC)c(NC(=O)NCc2ccc3c(c2)CCN3C(C)=O)cc1Cl | -0.9% |
| Cc1nc2c(c(C)nn2-c2ccccc2)c(C)c1CCC(=O)NCc1ccccc1 | 4.6% |
| CN1CCN(CCCNC(=O)c2cnn(-c3ccc(F)cc3)c2-n2cccc2)CC1 | -2.8% |
| Cc1ccc(NC(=O)C2CCCN(c3ncnc4onc(C)c34)C2)c(Cl)c1 (stereo unspecified) | -0.9% |
| CCOc1ccccc1NC(=O)COc1cccc2c(=O)n(CCOC)ccc12 | -20% |
| CCOc1ccc(C(=O)Nc2cccc(NC(=O)c3ccc(Cl)cc3Cl)c2)cc1 | ? |
| Cc1ccc(CCNS(=O)(=O)c2ccc3c(c2)C(C(C)C)C(=O)N3)cc1 (stereo unspecified) | 1.6% |
| CCOC(=O)c1c(C)oc2nc(C)nc(NC(C)c3ccccc3)c12 (stereo unspecified) | 1.2% |
| COc1ccc(OC)c(CNC(=O)CN2CC(C)Sc3ccccc32)c1 (stereo unspecified) | -0.8% |
| COCCCNC(=O)c1cnn(-c2ccc(F)cc2F)c1C1CCNCC1 | -3.0% |
| COc1ccc(F)cc1S(=O)(=O)NCC(c1ccco1)S(=O)(=O)c1ccc(F)cc1 (stereo unspecified) | -2.3% |
| CC(=O)c1ccc(NC(=O)Nc2sc3nc4n(c(=O)c3c2C)CCC(C)CC4)cc1 (stereo unspecified) | 2.1% |
| Cc1cccc(NC(=O)C2CCN(c3cnccn3)CC2)c1 | -21% |
| Cc1nn(-c2ccccc2)c2c1N(CC(=O)N1CCN(c3cccc(Cl)c3)CC1)C(=O)CS2 | -3.5% |
| Cc1onc(-c2ccccc2Cl)c1C(=O)Oc1ccc(Cl)cc1Cl | 0.8% |
| Clc1ncc(C#Cc2ccccc2)c2ncncc12 | 3.6% |
| COc1cc(OC)cc(-c2cc3nc(C)c(CCC(=O)NCCc4cccc(C)c4)c(C)n3n2)c1 | 4.2% |
| Cc1oc(-c2ccccc2F)nc1CN1CCC(C(=O)NCCc2ccc(Cl)cc2)CC1 | 0.2% |

Ordered by molar mass (largest number first): 5 of the compounds above.
| Compound | ClpP mod |
| --- | --- |
| COc1cc(OC)cc(-c2cc3nc(C)c(CCC(=O)NCCc4cccc(C)c4)c(C)n3n2)c1 | 4.2% |
| COc1ccc(F)cc1S(=O)(=O)NCC(c1ccco1)S(=O)(=O)c1ccc(F)cc1 (stereo unspecified) | -2.3% |
| CC(=O)c1ccc(NC(=O)Nc2sc3nc4n(c(=O)c3c2C)CCC(C)CC4)cc1 (stereo unspecified) | 2.1% |
| Cc1cccc(NC(=O)C2CCN(c3cnccn3)CC2)c1 | -21% |
| Clc1ncc(C#Cc2ccccc2)c2ncncc12 | 3.6% |

A portion from further up:
| Compound | ClpP mod |
| --- | --- |
| COc1ccc(F)cc1S(=O)(=O)NCC(c1ccco1)S(=O)(=O)c1ccc(F)cc1 (stereo unspecified) | -2.3% |
| CC(=O)c1ccc(NC(=O)Nc2sc3nc4n(c(=O)c3c2C)CCC(C)CC4)cc1 (stereo unspecified) | 2.1% |

Continuation:
| Compound | ClpP mod |
| --- | --- |
| CCOC(=O)c1c(C)oc2nc(C)nc(NCCCN3CCN(c4cc(Cl)ccc4C)CC3)c12 | 0.8% |
| Cc1ccccc1CN1C(=O)c2ccccc2S(=O)(=O)c2ccc(C(=O)OCC3CCCO3)cc21 (stereo unspecified) | -3.8% |
| Cc1cccc(N2C(=O)CCSC23C(=O)N(Cc2ccc(F)cc2)c2ccccc23)c1 (stereo unspecified) | -2.8% |
| CSc1ccc(CNC(=O)Cn2c(-c3cccs3)cc3cc(F)ccc32)cc1 | ? |
| CC(=O)c1cccc(NC(=O)c2oc3c(c2C)-c2nn(Cc4ccc(Cl)cc4)cc2CC3)c1 | -15% |
| Cc1ccccc1CNC(=O)c1ccc2nc(SCc3ccc(F)cc3)n(C)c2c1 | 2.3% |
| Cc1ccc(OCC(=O)Nc2ccc3nc(SCC(=O)N4CCCC4)sc3c2)cc1C | -0.8% |
| O=C(/C=C/c1ccccc1)N1CCN(Cc2cc(=O)n3nc(-c4ccccc4)sc3n2)CC1 | 0.3% |
| CCc1ccccc1NC(=O)c1nnn(CC(=O)Nc2c(C)cc(C)cc2C)c1N | -1.5% |
| Cc1cccc(-n2c(=O)c3c(c4cc(C)ccc4n3C)n(Cc3ccccc3F)c2=O)c1 | ? |
| COc1ccc(-c2nn3c(=O)cc(CN4CCN(C(=O)Nc5cc(C)ccc5C)CC4)nc3s2)cc1 | ? |
| CCOc1ccccc1NC(=O)CCc1nc(-c2cccc(C)c2)no1 | -0.8% |
| CN(C)c1ccc(C(CNC(=O)c2ccccc2)N2CCc3ccccc32)cc1 (stereo unspecified) | -14% |
| Cc1ccc(NC(=O)C2CCN(c3nc4ccccc4nc3C(F)(F)F)CC2)cc1C | 0.5% |
| COc1ccc(CNC(=O)CCc2c(C)c3cc4c(C)c(C)oc4cc3oc2=O)cc1 | ? |
| COc1ccccc1C(=O)Nc1nnc(SCc2cc(=O)c3cc(Cl)ccc3[nH]2)s1 | -0.9% |
| Cc1cccc(NC(=O)Cn2c(=O)ccc3cc(S(=O)(=O)N4CCCC4)ccc32)c1C | 2.2% |
| COCCn1c(C)cc(O)c(C(c2ccccc2)N2CCN(c3ccccc3)CC2)c1=O (stereo unspecified) | -0.6% |
| O=S1(=O)N=C(Nc2cccc(C(F)(F)F)c2)c2ccccc21 | 12% |
| O=C([C@@H]1CC=C[C@@H]2CCN(C3CC3)C(=O)[C@@H]21)N1CCOCC1 | 0.1% |
| Cc1cccc(NC(=O)CSc2nc3c([nH]c4ccccc43)c(=O)n2-c2ccc(F)cc2)c1C | 3.5% |
| COCCNC(=O)c1ccc(NC(=O)N2CCCCc3ccccc32)cc1 | -2.2% |
| CCCN(CCC)C(=O)c1c[nH]c2ccc(S(=O)(=O)N(C)c3ccc(OCC)cc3)cc2c1=O | -8.1% |
| Cc1sc2ncn(CC(=O)N3CCN(c4ccccc4)CC3)c(=O)c2c1S(=O)(=O)N1CCC(C)CC1 | -0.3% |
| COc1cc(/C=C/c2nc(C#N)c(N3CCC(C)CC3)o2)cc(OC)c1OC | 4.2% |
| COc1cc(-c2nnc(SCC(=O)Oc3ccc(C)cc3C)o2)cc(OC)c1OC | 9.1% |
| O=S(=O)(c1ccccc1)c1nnn2c1nc(NCc1ccccc1)c1sccc12 | -9.0% |
| O=C(C1CCCN(S(=O)(=O)c2ccc(Br)s2)C1)N1CCN(c2ccccc2F)CC1 (stereo unspecified) | 1.2% |
| Cn1c(=O)n(C)c2cc(NS(=O)(=O)c3ccccc3)c(NCc3ccccc3)cc21 | ? |
| Cc1ccc(S(=O)(=O)Nc2ccc3c(c2)CCCN3C(=O)c2cccs2)cc1C | 0.2% |
| CCOc1ccc(-c2nnc(SCC(=O)c3ccc(Br)cc3)n2-c2ccccc2)cc1 | -2.4% |
| CCOC(=O)N1CCc2c(sc3c2C(=O)NC(c2ccc(N(C)C)cc2)N3)C1 (stereo unspecified) | 4.3% |
| CCOc1ccc(CCNC(=O)c2c(C)oc3ncn(CC(C)C)c(=O)c23)cc1 | -3.5% |
| CCCN(c1ccccc1CC)S(=O)(=O)c1ccc2c(c1)CC(C)N2C(=O)C1CC1 (stereo unspecified) | -0.7% |
| COc1ccc2c(c1)c1c(c(=O)n(CCc3ccccc3)c(=O)n1Cc1cccc(F)c1)n2C | 3.7% |
| Cc1ccc(-n2nc(C(=O)N3CCN(c4cc(Cl)ccc4C)CC3)c(=O)n(C)c2=O)cc1 | -0.4% |
| COC(=O)c1ccc2c(c1)N(Cc1ccc(Cl)cc1)C(=O)c1ccccc1S2 | -4.9% |
| O=C(NCc1cccs1)c1ccc2c(c1)sc1nc(-c3ccc(F)cc3)cn12 | 4.8% |
| CN(C)c1ccc(/C=C/c2ccnc3ccc4ccccc4c23)cc1 | -1.5% |
| O=C(Nc1cccc(F)c1)c1ccc2oc(=O)n(Cc3ccccc3)c2c1 | 16% |
| COc1ccc(C(=O)NCCc2nc3ccccc3[nH]2)cc1 | 2.1% |
| CCCSCCCNC(=O)CN1C(=O)COc2ccc(S(=O)(=O)N3CCC(C)CC3)cc21 | 1.9% |
| COc1ccc2nc(NC(=O)c3nc(S(=O)(=O)Cc4ccccc4)ncc3Cl)sc2c1 | -0.1% |
| Cc1nc(N2CCCC2)c2c(C(=O)N3CCN(c4cccc(C)c4C)CC3)c(C)oc2n1 | -0.7% |
| COC(=O)c1ccc(NC(=O)CSc2cn(CC(=O)N3CCCCCC3)c3ccccc23)cc1 | 1.0% |
| O=C(NCc1ccccc1Cl)c1ccc2c(O)c(S(=O)(=O)c3ccccc3)c(=O)[nH]c2c1 | ? |
| COc1cn(CC(=O)Nc2cc(C)cc(C)c2)c(CN2CCCCC2)cc1=O | -2.5% |
| O=C1c2ccccc2-c2onc3c(NCCO)cc(NC4CCCCC4)c1c23 | 0.0% |
| COc1ccc(-n2nc(C(=O)Nc3ccccn3)c3c4ccccc4n(C)c3c2=O)cc1 | -0.3% |
| Cc1ccc(NC(=O)c2cc3cc(C)ccc3n2C)cc1 | 4.6% |
| CCCCN(CCCC)CCNC(=O)Cn1nc(CC)n2c(cc3sc(C)cc32)c1=O | -1.4% |
| CC(C)(C)C1CCc2c(sc(NC(=O)c3cccc(Cl)c3)c2C(=O)NCc2ccco2)C1 (stereo unspecified) | -7.2% |

Not all compounds are listed; count on the stated rates, not on these rows.
